Source: PubChem BioAssay (National Center for Advancing Translational Sciences (NCATS))
TRPML1 inh – human mucolipin-1 channel inhibition | Q9GZU1 | TRPML1-inducible cells, Ca2+ dye fluorescence, FDSS; stronger effect = lower value; inhibition of EC80 agonist-evoked calcium signal | activity change, negative = inhibition, % (test concentration not listed) | 390,000 tested, 0.02% active | AID 624415; in the data active means activity change below about -50%; inconclusive means about -30% to -50%; inactive means above about -30%;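 also: stimulus is agonist 54-4 at its EC80 concentration; % is scaled to controls: 0 for no effect and ±100 for the full control effect; compound concentration not given in the record; the text of the record puts the active cut at -80%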
Target sequence (Q9GZU1 whole entry, looked up): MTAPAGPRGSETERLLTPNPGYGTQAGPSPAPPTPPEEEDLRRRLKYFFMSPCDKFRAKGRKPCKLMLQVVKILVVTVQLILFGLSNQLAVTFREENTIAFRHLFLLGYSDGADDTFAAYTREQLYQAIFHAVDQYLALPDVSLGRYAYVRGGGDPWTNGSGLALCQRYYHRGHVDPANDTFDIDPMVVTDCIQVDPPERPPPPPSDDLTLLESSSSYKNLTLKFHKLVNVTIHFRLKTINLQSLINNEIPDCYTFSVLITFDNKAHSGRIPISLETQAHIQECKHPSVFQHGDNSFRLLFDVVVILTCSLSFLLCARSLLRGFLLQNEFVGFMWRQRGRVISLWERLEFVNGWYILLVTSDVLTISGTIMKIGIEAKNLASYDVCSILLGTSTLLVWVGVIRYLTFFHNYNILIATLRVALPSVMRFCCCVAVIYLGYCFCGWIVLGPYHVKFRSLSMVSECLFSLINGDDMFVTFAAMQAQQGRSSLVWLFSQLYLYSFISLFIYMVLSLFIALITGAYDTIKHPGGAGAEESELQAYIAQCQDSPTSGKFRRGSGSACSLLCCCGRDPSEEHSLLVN
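TRPML1-DL cells, Tet-induced overnight (~16 h, 37 °C) at 1,500 cells/well, were loaded with Ca8 no-wash dye plus quencher for 45-90 min at room temperature. Compounds were pinned during FDSS kinetic reading; agonist 54-4 at EC80 (4 uM final) then added.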
Menin MLL FP FL – displaces fluorescein MLL peptide from human menin | Fluorescence polarization, fluorescein-MLL peptide displacement from menin | FP activity change, % at 61.4 µM | 290,000 tested, under 10 active | AID 1766; inconclusive = falling polarisation curve, or a change in total fluorescence; inactive = total fluorescence flat and polarisation flat or rising; no compound was filed as active; the % refers to the polarisation; negative = inhibition;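 also: % of control where 0% means no effect; inhibitors lower the polarisation; unlabelled MLL peptide was the positive control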
Sfp PPTase inh – inhibitors of Bacillus subtilis Sfp phosphopantetheinyl transferase. Q9F4F7. Biochemical Sfp PPTase activity, qHTS. Potency, µM, for the others: max response, negative = inhibition, usual class: inhibitors. 310,000 tested, 3.5% active. AID 1490; active = well fitted inhibition curve with a large enough effect; inconclusive = small, poorly fitted or top-dose-only effect, or another doubt; inactive = no such curve, though single readings can be large or run the other way;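 also: the enzyme is Sfp with the accession as filed and its product quenches rhodamine fluorescence; potency is read from the fitted curve at half-maximal effect; 0% = enzyme reaction without inhibitor and -100% = no enzyme wells; top concentration of the series not given in the record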
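Fluorescence-quenching assay: 15 nM Sfp-PPTase preincubated 15 min at room temperature with compound, then 5 uM rhodamine-CoA and 12.5 uM BHQ-2-labelled YbbR peptide added. Fluorescence (ex 525/em 598 nm) read at start and after 30 min; difference gives rate.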
gsp agonist – activates gsp, the McCune-Albright syndrome mutation. AID 624287. 340,000 tested, 0.13% active. gsp mutant cells, cAMP HTRF, 30 min; control for the full effect not named in the record. Potency, µM (series often up to 76.9 µM), without a hit: top-dose activation (cAMP increase), usual class: activators; active = well fitted activation curve with a large enough effect; inconclusive = small, poorly fitted or top-dose-only effect, or another doubt; inactive = no such curve, though single readings can be large or run the other way; cell line not stated here;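 also: phosphodiesterase inhibitor Ro 20-1724 added with compounds to block cAMP breakdown; potency is read from the fitted curve at half-maximal effect; nearly all actives have a fitted effect of over 60% in size; about a fifth of the inactives were tested at one dose only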
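Cells stably selected in G418 were plated at 2000/well, grown 16-24 hr, then given compounds in DMSO with the PDE inhibitor […] (300 uM solution added) for 30 min at 37C; cAMP was read by HTRF.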
TRPV1 PAM – enhances activation of the human vanilloid receptor TRPV1; 320,000 tested, 0.02% active; TRPV1-expressing cells, Fluo-8 calcium influx, capsaicin EC20 potentiation; host cell line not named in the record; control for the full effect not named in the record; potentiation, % at 8.33 µM; Q8NER1; active means potentiation above 80%; inconclusive means 30% to 80%; inactive means below 30%; also: 0% is about no effect
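Fluo-8 calcium influx in TRPV1-expressing cells, kinetic read (ex 480/em 520 nm). Compound added and read 3 min for agonist activity, followed by capsaicin at EC20 final and 2 min further read for enhancement.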
gsp antag – gsp mutant antagonism; gsp-mutant cells, cAMP HTRF, 30 min; control for the full effect not named in the record; Potency, µM (series often up to 76.9 µM), for the others: top-dose activity change, negative = inhibition, actives largely listed as inhibitors; 340,000 tested, 0.4% active; AID 624288; active = falling curve of any shape with a large fitted effect; inconclusive = falling curve, mostly with a smaller effect; inactive = flat or rising curve; cell line not stated here;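 also: intracellular cAMP measured with PDE inhibitor Ro 20-1724 present during compound exposure; potency is read from the fitted curve at half-maximal effect; % is scaled to controls: 0 for no effect and ±100 for the full control effect; nearly all actives have a fitted effect of over 65% in size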
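Cells in G418 medium, seeded 16-24 h, 37C; buffer exchange to DPBS + 1 mM CaCl2, 0.5 mM MgCl2, 0.05% BSA; cpds in DMSO + […] (300 uM stock), 30 min 37C; HTRF cAMP detection.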
ClpP mod – qHTS Assay for Activators of ClpP | purified B. subtilis ClpP, FRET peptide cleavage, 20 min | Potency, µM (series often up to 57.5 µM), for inactives: at the top dose activity change, negative = active | 340,000 tested, 1.9% active; active = well fitted falling curve with a large enough effect; inconclusive = small, poorly fitted or top-dose-only effect; inactive = no such curve, though single readings can be large or run the other way; also: potency is read from the fitted curve at half-maximal effect; the source files actives as falling curves though it sought activators and does not explain the sign; nearly all actives have a fitted effect of over 65% in size; many hits overshoot -100%
Target sequence (P80244 whole entry, looked up): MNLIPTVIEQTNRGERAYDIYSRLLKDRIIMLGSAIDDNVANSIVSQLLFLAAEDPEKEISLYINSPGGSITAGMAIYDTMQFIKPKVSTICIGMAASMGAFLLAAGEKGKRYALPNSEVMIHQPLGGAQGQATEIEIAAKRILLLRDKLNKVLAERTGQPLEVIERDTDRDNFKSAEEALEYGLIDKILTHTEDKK
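ClpP 10 microg/mL final, pH 8 Tris/KCl buffer with BSA, glycerol, Tween-20; compound pinned in; FRET-FV substrate; RT 20 min; Ex320/Em430; ΔFRET vs ADEP 5.8 microM, DMSO, no enzyme.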
The depositor's hits bear a star; ? = inconclusive; nt = not tested or not shown; & = joins results of further samples; [ ] = remark or other dose. Not all compounds are listed, so the mix of outcomes need not match the whole.

SMILES	TRPML1 inh	Menin MLL FP FL	Sfp PPTase inh	gsp agonist	TRPV1 PAM	gsp antag	ClpP mod
O=C1CSC2(CN3CCC2CC3)N1 (stereo not given)	-9.7	2.4	-4.4%	-6.5%	-3.0	-3.8%	1.1%
COc1cc([C@@H]2c3cc4c(cc3[C@@H](OC)[C@H]3COC(=O)[C@H]23)OCO4)cc(OC)c1O	11.1	2.0	?	12.6%	-29.9	12.8%	1.3%
CC(N)Cc1c[nH]c2c1ccc1ccccc12 (stereo not given)	-9.8	6.1	5.3%	3.3%	5.5	7.0%	-15.8%
C[C@]12CCC3C(CC[C@H]4C[C@H](O)CC[C@]34C)C1[C@@H](O)C[C@@H]2O (stereo not given in full)	-6.1	nt	nt	10.6%[15.4 µM]	nt	5.6%	-0.5%
O=P(Nc1cccnc1)(Oc1ccccc1Cl)Oc1ccccc1Cl	6.9	3.6	0.1%	-13.9%	2.2	-16.5%	-1.3%
C[C@@H]1C2C[C@@]34COC(=O)C3=CC=C[C@H]4[C@@]13C[C@H](c1ccoc1)O[C@@H]3O2	-0.1	-3.9	-12.1%	3.0%	9.1	8.7%	-2.8%
COC(=O)C1=C(c2ccc3ccccc3c2)C[C@@H]2CC[C@H]1N2C(=O)N1CCCC1	26.5	nt	nt	?	-6.8	-12.0%	-4.1%
CCOc1ccccc1NC(=O)c1ccccc1N(C)S(=O)(=O)c1ccc(C)cc1	4.1	nt	nt	-8.9%[15.4 µM]	nt	?	1.0%
Brc1ccc(-[n+]2c(-c3ccccc3)cc(-c3ccccc3)cc2-c2ccccc2)cc1	37.4	nt	nt	nt	-18.5	-2.8%	-11.9%
Cc1ccccc1NC1=NCC(C)S1 (stereo not given)	23.1	9.1	17.6%	-84.5%[inhibitor]	-1.3	-4.4%	-0.6%
Cc1cc(OC(=O)N(C)C)n(-c2ccccc2)n1	-6.8	-6.1	9.0%	-17.4%	-0.2	6.0%	nt
COc1ccc(C(O)P(=O)(OC(C)C)OC(C)C)cc1 (stereo not given)	10.9	-1.1	20.1%	28.5%	1.1	-5.3%	0.0%
CN(C)CCn1cnc2ccccc21	nt	3.2	-6.4%	17.0%	10.3	4.9%	0.9%
COc1ccc(CC2(CCc3ccncc3)C(=O)NC(=O)NC2=O)cc1	-10.1	-3.1	20.5%	2.5%[15.4 µM]	4.3	1.4%	nt
CCN1CCN(Cc2cc(Br)cc(Br)c2O)CC1	2.4	9.2	-23.2%	4.9%	3.6	-1.6%	0.9%
COC(=O)C1=C(c2ccc(OC)c(OC)c2)C[C@@H]2CC[C@H]1N2C(=O)NCCc1ccccc1	-10.2	nt	nt	8.8%	-22.3	6.1%	0.8%
O=C1NC(=O)N(c2ccc3c(c2)OCO3)C(=O)/C1=C/c1cccs1	-0.1	?	11.2µM*	-24.4%	29.6	-6.6%	nt
NP(=O)(Nc1ccccc1)Nc1ccccc1	22.0	nt	nt	-3.6%	nt	10.5%	nt
COc1cc(CC2C(=O)N(C)C(=O)N(C)C2=O)ccc1OCc1ccccc1	-12.9	3.3	-18.4%	3.2%	8.4	-2.6%	-3.0%
CC1CCCC(NC(=O)COC(=O)Cc2ccccc2)C1C (stereo not given)	-9.2	2.2	9.8%	-34.8%[inhibitor]	-4.4	-2.8%	-3.0%
COc1ccc(C(O)c2ccccc2OP(=O)(N(C)C)N(C)C)cc1 (stereo not given)	-19.5	0.5	19.9%	18.4%	9.1	10.1%	1.9%
O=C(CCCCCn1c(=S)[nH]c2ccccc2c1=O)N1CCC2(CC1)OCCO2	25.8	0.1	-2.2%	-4.7%	7.9	-10.6%	0.7%
CC(=O)O[C@H]1CC[C@@]2(C)C(=CC(=O)C3C2CC[C@@]2(C)C3C[C@H](OC(C)=O)[C@@H]2OC(C)=O)C1 (stereo not given in full)	4.9	nt	nt	-22.0%	nt	-4.8%	nt
Brc1ccc(CN2CCNCC2)s1	-24.8	-0.8	3.8%	-3.0%	-10.8	5.7%	-4.4%
CN(C)CC#CCn1c2ccccc2c2ccccc21	-8.0	-0.8	-3.8%	20.6%	6.3	-0.2%	-5.6%
C[N+](C)(C)CC1CCCC(C[N+](C)(C)C)C1=O (stereo not given)	4.2	nt	nt	-20.9%	nt	9.4%	1.0%
O=C1CN=C(c2ccccc2)c2cc(Br)ccc2N1	13.0	1.6	6.7%	-13.0%	1.0	5.8%	2.6%
COc1cc2c(cc1OC)C1C(=O)c3ccc4c(c3OC1CO2)CC(C(C)C)O4 (stereo not given)	1.6	nt	nt	1.8%	nt	-2.0%	nt
Oc1c(Cl)c(Cl)c(Cl)c(Cl)c1Cl	2.5	-4.3	8.9%	nt	nt	-14.2%	-0.5%
O=C1NC(=O)C2(CCN(c3ccccc3)CC2)C(=O)N1	15.1	nt	nt	0.3%	nt	15.0%	1.2%
CC1CCOC(=O)C=CC=CC(=O)OC2CC3OC4C5OC5(C)C(O)CC4(COC(=O)C1O)C2(C)C31CO1 (stereo not given)	20.5	nt	nt	9.2%	nt	-1.0%	-10.4%
CCc1nnc(NS(=O)(=O)c2ccc(N=Cc3c(O)n(-c4ccccc4)c(=O)[nH]c3=O)cc2)s1	5.5	14.6	-8.2%	-8.2%[15.4 µM]	2.7	9.3%	nt
CC12CCC3C(CCC4(O)CC(O)CCC34C=O)C1(O)CCC2C1=CC(=O)OC1 (stereo not given)	44.3	nt	nt	?	nt	-0.9%	2.4%
COc1cc(C)cc(CN2CC=C(c3ccccc3)CC2)c1O	-16.7	2.8	-29.9%	-10.5%	6.9	-3.9%	0.9%
COc1ccc(N2C(=O)NC(=O)/C(=C\c3cn(CC(=O)N4CCOCC4)c4ccccc34)C2=O)c(OC)c1	-19.4	7.2	-1.0%	0.1%	6.7	-19.5%	5.4%
CC1[C@H]2Cc3ccc(O)cc3[C@]1(C)CCN2CCc1ccccc1 (stereo not given in full)	6.8	nt	nt	nt	nt	-1.8%	1.2%
Cc1ccc(S(=O)(=O)N2CCCC2c2cccnc2)cc1 (stereo not given)	7.9	-0.2	12.5%	8.0%[15.4 µM]	-4.3	-5.0%	-0.2%
CC1CCC(C(C)C)C(OC(=O)COC(=O)c2ccccc2N)C1 (stereo not given)	9.8	3.4	-6.6%	1.2%	-13.5	4.7%	28.2µM*
O=C(c1ccc(CS(=O)(=O)c2ccc(Br)cc2)o1)N1CCC2(CC1)OCCO2	-16.5	0.7	17.5%	-2.4%	-5.1	-3.5%	-3.1%
CC12C=CC(=O)C=C1CCC1C2C(O)CC2(C)C1CCC2(C)O (stereo not given)	14.2	nt	nt	?	nt	-1.9%	nt
C=CCN1CC[C@]23c4c5ccc(O)c4O[C@H]2C(=O)CC[C@@]3(O)[C@H]1C5	-4.8&-4.4	3.1&1.0	10.3%&-6.9%	nt	-0.6&-3.4	6.8%&-5.2%	0.2%&-0.5%
CCC(=Nc1ccc2c(c1)CCC2)c1c(O)n(C)c(=O)n(C)c1=O	1.3	0.3	6.0%	17.2%	5.0	4.6%	-2.2%
COC(=O)C1=C(c2ccc(C(C)=O)cc2)C[C@@H]2CC[C@H]1N2C(=O)NCCCOC(C)C	-3.9	nt	nt	nt	15.6	8.1%	1.3%
CCCC(C)CC1(CCO)C(=O)NC(=S)NC1=O (stereo not given)	14.0	nt	nt	12.3%	nt	3.4%	nt
O=P(Nc1ccccc1)(Nc1ccccc1)Oc1ccc(Cl)cc1	4.9	1.8	7.5%	-48.6%[inhibitor]	-1.6	1.7%	-1.8%
O=[N+]([O-])/C=C/c1c(Cl)cccc1Cl	-6.1	nt	nt	7.0%	nt	15.4%	0.5%
CN1CCc2nc(SCc3ccccc3Br)c(C#N)cc2C1	13.0	-1.5	-23.1%	-45.0%[inhibitor]	-13.0	7.8%	-8.3%
O=P(/C(=N/O)N1CCCCC1)(N1CCOCC1)N1CCOCC1	17.5	-3.2	10.3%	?	2.7	18.2%	1.2%
COc1ccccc1N1CCN(Cc2ccccc2Cl)CC1	-5.1	0.1	-17.7%	-2.3%	8.6	10.6%	0.6%
Cn1c(O)c(C=Nc2cccc(C(F)(F)F)c2)c(=O)n(C)c1=O	2.4	3.8	-7.9%	27.4%	-15.0	7.5%	nt
CC(C)=CCN1CC[C@@]2(C)c3cc(O)ccc3C[C@@H]1C2C (stereo not given in full)	12.2	nt	nt	nt	nt	2.9%	-2.4%
CC(=O)C1CCC2C3CCC4CC(O)CCC4(C)C3C(=O)CC12C (stereo not given)	7.9	nt	nt	26.3%[15.4 µM]	nt	-8.1%	0.7%
CN1C(=O)CN=C(c2ccccc2)c2cc(Cl)ccc21	nt	-0.8	3.1%	nt	-10.4	nt	nt
O=C1CC(=O)N(c2ccc(Cl)cc2)C(=O)N1	24.6	?	2.4%	2.3%[15.4 µM]	-37.6	14.7%	0.6%
COc1c(/C=C2/C(=O)NC(=O)N(C)C2=O)c(CCN(C)C(=O)c2ccccc2)cc2c1OCO2	nt	-1.2	7.9%	nt	-3.4	-17.1%	1.9%
NP(=O)(OCCCc1ccccc1)c1ccccc1 (stereo not given)	6.1	-2.0	11.0%	nt	?	6.0%	0.8%
CC(C)OC(=O)C1C2c3ccccc3C(c3ccccc32)C1C(=O)O (stereo not given)	-11.8	0.7	8.3%	15.5%	-4.2	6.2%	nt
CCCC1(CCC)C(=O)NC(=Nc2ccccc2)NC1=O	13.0	-2.4	17.9%	-51.8%[inhibitor]	9.5	12.2%	-0.5%
COc1ccc2[nH]c(C)c(CCNCc3cn(C)c4ccccc34)c2c1	2.0	nt	nt	-48.7%[inhibitor]	2.6	15.2%	-9.9%
O=C1NC(=O)C2(Cc3ccccc3N3CCCC32)C(=O)N1c1ccc(Cl)cc1 (stereo not given)	-1.3	?	-1.5%	-19.0%	8.1	-2.7%	-20.5%
